KCNQ2 block – KCNQ2 potassium channel inhibitors, primary screen, cell-based, CHO-K1, FluxOR thallium flux, B-score (AID 2156) | O88943 | 20 min; stronger effect = lower value; only compounds with negative scores are shown here; some inactives read as strong as hits | B-score at 10 µM | 1.1% of 310,000 active;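 active = fluorescence ratio B-score at most minus 3 library SDs, with starting brightness B-score within 2 library SDs, cut at about -5.5 in these data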
Target sequence (O88943 whole entry, looked up): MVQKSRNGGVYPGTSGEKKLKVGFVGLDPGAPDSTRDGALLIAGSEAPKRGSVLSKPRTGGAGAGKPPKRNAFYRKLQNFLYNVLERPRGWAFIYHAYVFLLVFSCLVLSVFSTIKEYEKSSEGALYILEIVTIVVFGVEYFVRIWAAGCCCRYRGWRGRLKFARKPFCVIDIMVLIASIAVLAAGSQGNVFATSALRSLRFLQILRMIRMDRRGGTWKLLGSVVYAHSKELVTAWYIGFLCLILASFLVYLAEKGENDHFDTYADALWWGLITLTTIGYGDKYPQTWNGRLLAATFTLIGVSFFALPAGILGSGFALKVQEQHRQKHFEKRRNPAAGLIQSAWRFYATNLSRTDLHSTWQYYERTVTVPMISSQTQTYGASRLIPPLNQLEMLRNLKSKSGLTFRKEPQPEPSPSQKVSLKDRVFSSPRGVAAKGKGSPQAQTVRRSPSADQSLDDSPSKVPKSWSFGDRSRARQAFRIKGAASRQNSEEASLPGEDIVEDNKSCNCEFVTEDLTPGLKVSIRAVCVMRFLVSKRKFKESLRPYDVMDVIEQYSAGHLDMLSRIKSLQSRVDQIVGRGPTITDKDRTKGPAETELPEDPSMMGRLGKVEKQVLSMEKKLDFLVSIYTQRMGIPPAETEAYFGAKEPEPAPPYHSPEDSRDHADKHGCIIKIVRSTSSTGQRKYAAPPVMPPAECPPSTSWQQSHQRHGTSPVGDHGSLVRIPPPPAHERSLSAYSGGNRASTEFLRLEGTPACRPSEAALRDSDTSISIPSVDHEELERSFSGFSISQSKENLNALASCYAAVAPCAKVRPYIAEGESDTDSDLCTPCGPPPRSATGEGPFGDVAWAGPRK
KCNQ2 block baseline – second read-out of KCNQ2 block, no call of its own (marks repeat the call); B-score; measured here: initial fluorescence intensity artifact check;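 brightness before thallium and not channel activity; 0 = typical well and far values either way flag optical interference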
Starred values were filed as active, the others as inactive; i = inactive. Only part of the results is shown. The share of hits here may be higher or lower than overall.

Every second line gives: KCNQ2 block	KCNQ2 block baseline
1: COC(=O)C1=C[C@@H](C(=O)OC)[C@@H]2C3=C(C(=O)[C@@]2(C)NC(=O)c2ccccc2)[C@H](C)C(C(=O)OC)=C(C(=O)OC)[C@@H]3C1
  i	-0.49
2: CCN(CC)c1nc2ccccc2nc1C(C#N)C(=O)NCCc1ccccc1 (stereo not given)
  i	1.4
3: Cc1cc(C)cc(NC(=O)NN2C(C)CCCC2C)c1 (stereo not given)
  i	0.89
4: N#CCCC12CCCCC1=Nc1ccccc12 (stereo not given)
  i	0.94
5: CC(=O)c1c(C)n(C)c2ccc(OC(=O)c3ccco3)cc12
  i	-0.38
6: CCn1c(SCC(=O)Nc2nc3ccc(C)cc3s2)nc2c(c1=O)SC(C)C2 (stereo not given)
  i	-1.4
7: O=C(Cn1cnc2ccccc2c1=O)c1ccc(Br)cc1
  i	0.27
8: CCOc1cc(N2CCOCC2)c(OCC)cc1NC(=O)CSc1cccc[n+]1[O-]
  i	-0.17
9: O=C(COc1ccc(Br)cc1)N1CCN(S(=O)(=O)/C=C/c2ccccc2)CC1
  i	-1.6
10: COc1cc(CNC(C)c2ccccc2)cc(Br)c1OCc1ccccc1 (stereo not given)
  i	0.3
11: CCOc1ccc(NC(=O)C(CC)NC(=O)c2ccccc2CO)cc1 (stereo not given)
  i	0.01
12: O=C(Nc1ccc(Cl)cc1)c1cccc(OC(=S)N2CCOCC2)c1
  i	0.87
13: CCCCOc1cccc(C(=O)N(Cc2ccccc2)C2CCS(=O)(=O)C2)c1 (stereo not given)
  i	0.72
14: CCOc1ccccc1C(=O)Nc1cccc(-c2nnc(-c3ccccc3)o2)c1
  i	1.7
15: Cc1c(NC(=O)c2cccnc2Cl)c(=O)n(-c2ccccc2)n1C
  i	-0.5
16: COc1cc(C(=O)Nc2ccccc2N2CCCCC2)cc(OC)c1OC
  -7.4*	-1.1*
17: Cc1cc(-c2csc(NC(=O)c3cccc(S(=O)(=O)N(C)C)c3)n2)c(C)n1-c1ccccc1
  i	-1.4
18: CC(C)[C@@H](C(=O)NCC1CCC(C(=O)O)CC1)n1nnc2ccccc2c1=O (stereo not given in full)
  i	0.02
19: Cc1nc2ccccc2c(=O)n1NC(=O)C1CC1
  i	1.2
20: COc1cccc(C=Nc2ccccc2C(=O)Nc2nccs2)c1OC
  i	1.2
21: Brc1ccccc1C1N=C(c2ccccc2)NO1 (stereo not given)
  i	-1
22: CCCCOc1ccccc1NC(=O)CC1SC(=NCC)N(CC)C1=O (stereo not given)
  i	0.34
23: O=C(Cn1nnc2c(cnn2-c2ccc(F)cc2)c1=O)OC1CCCCC1
  i	-1.9
24: CCOC(=O)c1[nH]c2ccccc2c1NC(=O)CN1CCCCC1
  i	2.2
25: Cc1cc(C)nc(SCC(=O)Nc2ccc3c(c2)OCO3)n1
  i	-0.05
26: Cc1ccc(NC(=O)c2ccc(NS(=O)(=O)c3cccc4cccnc34)cc2)cc1
  i	-1.3
27: COc1ccc(/C=C2\CCCC3C2=NN(C(=O)c2scnc2C)C3c2ccc(OC)cc2)cc1 (stereo not given)
  i	0.99
28: O=C(NC1CCCc2ccccc21)C1CCC(CNS(=O)(=O)c2cccc3nsnc23)CC1 (stereo not given)
  i	1.7
29: CCCCCCCc1ccc(-c2ccc(O)cc2)nc1
  i	-0.16
30: Cc1cc(/C=N/NC(=O)c2cccc(F)c2)c(C)n1-c1ccccc1
  i	-0.02
31: C=CCNC(=S)N/N=C/c1cccc([N+](=O)[O-])c1
  i	-0.97
32: Cn1cnnc1Sc1nc2ccccc2nc1NS(=O)(=O)c1ccccc1
  i	-0.98
33: CC(C)Oc1cccc(C(=O)NC(=S)Nc2ccccc2N2CCOCC2)c1
  i	-1.5
34: O=[N+]([O-])c1cc([N+](=O)[O-])c(Oc2cccc(Cl)c2Cl)cc1NN1CCCCC1
  i	-0.07
35: CCCN1CCC(N2CCN(c3ccc([N+](=O)[O-])cc3)CC2)CC1
  i	-0.07
36: CC(C)c1ccc(S(=O)(=O)N2CCN(C(=O)c3cc(-c4ccccc4)n[nH]3)CC2)cc1
  i	0.03
37: CCN(CC)c1ccc(C=Nc2ccccc2C)c(O)c1
  i	0.6
38: Cc1cc(C(=O)CSc2nnc(Nc3ccccc3F)s2)c(C)n1CC1CCCO1 (stereo not given)
  i	0.08
39: CCOC(=O)c1c(C)c(C(=O)NCCc2ccccc2)c(C)n1C
  i	-0.16
40: COc1ccc(-c2ccc(OC)c([C@H]3[C@H]4C=CC[C@@H](C)[C@@H]4C(=O)N3Cc3ccccc3)c2)cc1OC
  i	-1.6
41: Cc1cccc(NC(=S)NCC(c2cccnc2)N(C)C)c1C (stereo not given)
  i	0.88
42: Cc1nc2cc3ccccc3cc2n1C
  i	-0.47
43: COC(c1ccccc1)c1nnc(CCC(=O)N2CCN(Cc3cccs3)CC2)o1 (stereo not given)
  i	1.2
44: CCO[C@@H]1OC(C(=O)NC2CC2)=C[C@H](C2CCCCC2)[C@H]1CCCO
  i	0.05
45: CCC(CO)NCc1ccc(Br)cc1 (stereo not given)
  i	2.1
46: Cc1ccc(N2CCN(CCc3nc4cc(NC(=O)c5ccco5)ccc4n3C)CC2)cc1
  i	0.35
47: Cc1cc(C)c(C#N)c(Nc2ccccc2F)n1
  i	2.5
48: O=C(Cn1nc(CNc2ccc(Br)cc2)[n+]2c1CCCCC2)c1ccc([N+](=O)[O-])cc1
  i	-0.56
49: CCCc1nnc(SCC(=O)N2CCCC(C)C2)n1CCOC (stereo not given)
  i	-0.23
50: COCC(C)NC(=O)CCS(=O)(=O)c1nc(-c2ccc(OC)cc2)cc(C(F)(F)F)n1 (stereo not given)
  i	0.78

Additional compounds follow:
Every second line gives: KCNQ2 block	KCNQ2 block baseline
51: CCCCCOC(=O)C1C(c2ccccc2)C(C(=O)O)C1c1ccccc1 (stereo not given)
  i	0.04
52: Cc1cc2c(N=O)c(NO)ccc2[nH]1
  i	4.9
53: CCN(CC(=O)Nc1ccc(OC)c(OC)c1)CC(=O)Nc1ccccc1C(F)(F)F
  i	0.12
54: Cc1ccc(C(C(=O)NC2CCCCC2)N(Cc2ccccc2)C(=O)Cc2c[nH]c3ccccc23)o1 (stereo not given)
  i	-2.2
55: Cc1nc(N2CCN(Cc3ccc(Cl)cc3)CC2)c2oc3ccccc3c2n1
  i	0.11
56: Cc1nn(C(C)C(=O)N2CCc3ccccc3C2)c(=O)c2cc3occc3n12 (stereo not given)
  i	-0.21
57: CN(C)S(=O)(=O)Oc1ccsc1C(=O)Nc1ccc(C(F)(F)F)cc1
  i	-0.6
58: COC(=O)COc1cccc2c(=O)n(CC(=O)NCc3ccc(F)cc3)ccc12
  i	3.2
59: Cc1ccc(S(=O)(=O)N2CCN(Cc3ccccc3)CC2)cc1
  i	3.7
60: Cc1ccc(SCC(=O)Nc2ccc(S(=O)(=O)Nc3nccs3)cc2)cc1
  i	-0.57
61: CCOP(=O)(OCC)c1nc(-c2ccc(Cl)cc2Cl)oc1N1CCOCC1
  i	1.3
62: CCCCn1c(N)c(N(CCOC)C(=O)c2ccc(S(=O)(=O)N(CC)c3ccccc3)cc2)c(=O)[nH]c1=O
  i	0.29
63: CCOC(=O)CCNC(=O)Nc1ccc2nc(C)n(Cc3ccc(Cl)cc3)c(=O)c2c1
  i	0.38
64: COc1ccccc1CN1C[C@@H]2C[C@@H](c3ccc(C)c(C)c3)N3CCC[C@@]23C1=O
  i	-0.86
65: COc1ccc(/C=N/N=C2/NC(=O)CC(C(=O)O)S2)cc1 (stereo not given)
  i	-0.78
66: OCCCc1cn(-c2ccccc2)c2ccccc12
  i	0.01
67: CN(C(=O)c1ccc2c(c1)OCO2)C1(C(=O)NC2CCCCC2)CCCCC1
  i	-1.1
68: CC(C)c1ccc(NC(=O)COC(=O)/C=C/c2cccc([N+](=O)[O-])c2)cc1
  i	-0.21
69: COc1cc(C(=O)N2CCN(c3cccc(C)c3C)CC2)cc(OC)c1OC
  i	-1.5
70: Cn1cccc1/C=C1\SC(=S)N(Nc2ccccc2)C1=O
  i	-0.98

Seven entries drawn at random from the list so far, as already listed:
Every second line gives: KCNQ2 block	KCNQ2 block baseline
12: O=C(Nc1ccc(Cl)cc1)c1cccc(OC(=S)N2CCOCC2)c1
  i	0.87
68: CC(C)c1ccc(NC(=O)COC(=O)/C=C/c2cccc([N+](=O)[O-])c2)cc1
  i	-0.21
26: Cc1ccc(NC(=O)c2ccc(NS(=O)(=O)c3cccc4cccnc34)cc2)cc1
  i	-1.3
4: N#CCCC12CCCCC1=Nc1ccccc12 (stereo not given)
  i	0.94
30: Cc1cc(/C=N/NC(=O)c2cccc(F)c2)c(C)n1-c1ccccc1
  i	-0.02
38: Cc1cc(C(=O)CSc2nnc(Nc3ccccc3F)s2)c(C)n1CC1CCCO1 (stereo not given)
  i	0.08
54: Cc1ccc(C(C(=O)NC2CCCCC2)N(Cc2ccccc2)C(=O)Cc2c[nH]c3ccccc23)o1 (stereo not given)
  i	-2.2

Back to the main list with the 5 entries that preceded the break.
Every second line gives: KCNQ2 block	KCNQ2 block baseline
66: OCCCc1cn(-c2ccccc2)c2ccccc12
  i	0.01
67: CN(C(=O)c1ccc2c(c1)OCO2)C1(C(=O)NC2CCCCC2)CCCCC1
  i	-1.1
68: CC(C)c1ccc(NC(=O)COC(=O)/C=C/c2cccc([N+](=O)[O-])c2)cc1
  i	-0.21
69: COc1cc(C(=O)N2CCN(c3cccc(C)c3C)CC2)cc(OC)c1OC
  i	-1.5
70: Cn1cccc1/C=C1\SC(=S)N(Nc2ccccc2)C1=O
  i	-0.98
71: CC(=O)Nc1ccc(NC(=O)C(C)OC(=O)C2CCC2)cc1 (stereo not given)
  i	-0.16
72: O=C(NCCc1ccccc1)c1ccco1
  i	-0.82
73: Cc1cccc(NC(=O)c2ccc([N+](=O)[O-])o2)c1
  i	-0.63
74: Cc1cc(C)c2sc(N(CCCN(C)C)C(=O)c3ccc(S(=O)(=O)N(C)C4CCCCC4)cc3)nc2c1
  i	-0.91
75: Cc1nnc2n(-c3ccccc3)c(=O)c3c4c(sc3n12)CCCC4
  i	0.07
76: Cc1ccc(C)c(S(=O)(=O)N2CCCOC2CNC(=O)C(=O)NCc2ccc3c(c2)OCO3)c1 (stereo not given)
  i	0.27
77: COc1ccc(OC)c2sc(N(CCCN(C)C)C(=O)c3ccc(S(=O)(=O)N4CCc5ccccc5C4)cc3)nc12
  i	-0.23
78: C=CCNC(=O)Nc1ccc(Cl)cn1
  i	0.93
79: O=C(COc1cccc2c1CCN(Cc1ccc(Cl)cc1)C2=O)N1CCOCC1
  i	0.51
80: Cc1ccc2cc(C)c(N3CCN(c4ccc(F)cc4)CC3)nc2c1
  i	2.7
81: NC(N)=NC1=NC(=O)/C(=C/c2ccccc2-n2cccn2)S1
  i	-0.04
82: O=C(NCCN1CCOCC1)c1cn(-c2ccccc2)nc1-c1cccs1
  i	0.11
83: CN(C)CCOc1ccc2c(c1)Sc1ccccc1CC2=O
  i	1.3
84: Cc1[nH]c2ccccc2c1C(=O)CN1CCCC(C)C1 (stereo not given)
  i	1.3
85: Cc1c(C(=O)OCCOc2ccc(Br)cc2)sc(=S)n1C
  i	0.72
86: CC(C)CCNC(=O)CN(C(=O)CCC(=O)Nc1ccccn1)c1ccc2c(c1)OCO2
  i	0.05
87: CCOc1ccccc1N(C(=O)Cn1nnnc1-c1ccc(C)o1)C(CC)C(=O)NC(C)(C)C (stereo not given)
  i	0.48
88: CCc1ccc2[nH]c(=O)c(CN(Cc3ccco3)C(=S)NCC3CCCO3)cc2c1 (stereo not given)
  i	-0.57
89: O=C(COC(=O)Cc1ccc(S(=O)(=O)N2CCCCC2)s1)Nc1ccc2c(c1)OCO2
  i	-0.07
90: O=C(NC(n1ccc(=O)[nH]c1=O)C(Cl)(Cl)Cl)C12CC3CC(CC(C3)C1)C2 (stereo not given)
  i	-0.21
91: Nc1ccc2oc(-c3cc(Br)ccc3Cl)nc2c1
  i	0.07
92: CCc1ccc(CN2CCC(N3CCC(C(=O)N4CCCC4)CC3)CC2)o1
  i	0.37
93: CCn1cc(C(=O)O)c(=O)c2cc(F)c(N3CCN(S(=O)(=O)c4ccc(Br)cc4)CC3)cc21
  i	1.8
94: CCC1CCC(C(=O)NC(C(=O)Nc2ccc3c(c2)OCCO3)C(C)C)CC1 (stereo not given)
  i	0.8
95: Cc1ccc(S(=O)(=O)NCc2ccc(C(=O)N3CCN(c4ccccc4)CC3)cc2)cc1
  i	-0.57
96: CC1CCCCC1NC(=O)Cn1nc(-c2ccccc2)ccc1=O (stereo not given)
  i	-0.16
97: CCOc1ccc(NC(=O)NC2CCCc3ccccc32)cc1 (stereo not given)
  i	0.27
98: N#CCC(=O)Nc1ccc(C(=O)OCC(=O)c2ccc3c(c2)OCO3)cc1
  i	0.26
99: COc1ccc(S(=O)(=O)N2CCN(C3CC4CCC3C4)CC2)cc1 (stereo not given)
  i	1.9
100: Fc1ccc(-c2cc(C(F)(F)F)nc(NCC3CCCO3)n2)cc1 (stereo not given)
  i	-0.93
101: CCCCN(C(=O)c1cc2ccccc2o1)c1c(N)n(CCC)c(=O)[nH]c1=O
  i	-0.06
102: COc1ccccc1CC(=O)NNC(=O)c1ccco1
  i	-1.5
103: CC(C)(C)NS(=O)(=O)c1cc(C(=O)O)ccc1Cl
  i	-1.1
104: CCn1nc(C)cc1C(=O)NC1CCCc2c1cnn2-c1ccc(C)c(C)c1 (stereo not given)
  i	-3.6
105: O=C(O)Cc1cn(Cc2ccc(F)cc2)c2ccccc12
  i	0.02
106: CC(Oc1ccc2c(=O)c(-c3ccc(Cl)cc3)c(C(F)(F)F)oc2c1)C(=O)O (stereo not given)
  i	-0.46
107: Cc1ccnc(NS(=O)(=O)c2ccc(N=CC3=C(O)CC(C)(C)CC3=O)cc2)n1
  i	-0.57
108: Cc1cccc(C)c1NC(=O)c1ccc(CN2CCc3ccccc3C2)cc1
  i	-0.25
